Six1-Eya2 blk: Six1/Eya2 interaction inhibition; Q15475+O00167; AlphaScreen GST-Six1/His-Eya2 binding, biochemical; stronger effect = lower value; control for the full effect not named in the record; activity change, % (test concentration not listed); hit rate 0.56% among 360,000; in the data active = activity change below about -65%; inconclusive = about -30% to -65%; inactive = above about -30%; further: on the % scale 0 is the no-effect control and ±100 the full control effect; compound concentration not given in the record
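Six1/Eya2 binding was read as AlphaScreen signal after compounds were pinned into GST-Six1 plus His-tagged Eya2 (5X stock 250/500 nM) in pH 8.0 Tris/NaCl/TCEP buffer, beads added, then incubated 1 h, 37 C, dark.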
CtBP-E1A blk: blocks the CtBP interaction with E1A | AlphaScreen GST-E1A/His-CtBP binding, 1536-well; stronger effect = lower value; control for the full effect not named in the record | activity change, % (test concentration not listed) | hit rate 0.49% among 340,000; in the data active means activity change below about -65%; inconclusive means about -30% to -65%; inactive means above about -30%; further: on the % scale 0 is the no-effect control and ±100 the full control effect; compound concentration not given in the record
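Steps: dispense buffer (Tris pH 8.0, NaCl 300 mM, TCEP 1 mM, BSA, Tween 20); add 5X protein mix (GST-E1A, His-CtBP, 125 nM each); pin 23 nL compound; 2 h at 37 °C, dark; add 5X beads (50 ug/mL); 1 h; read.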
PINK1 expr mod: changes PINK1 expression | PINK1 immunofluorescence, high-content cytometry, 24 h | Potency, µM (titrated, usually from 76.6 µM), for inactives: top-dose activation (PINK1 increase), hits mostly activators | hit rate 0.2% among 410,000; active = well fitted activation curve with a large enough effect; inconclusive = small, poorly fitted or top-dose-only effect; inactive = flat fitted curve, though single readings scatter; cell line not stated here;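 further: potency means the concentration at half of the fitted maximal effect; % of control where 0% means no effect; nearly all actives have a fitted effect of over 65% in size; a mitochondrial uncoupler was the plate control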
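Fluorescence from anti-PINK1 antibody, together with nuclear and cell stains, was scanned on a laser-scanning cytometer. Before staining, stable-line cells were incubated 24 hours with compounds at 5 concentrations; primary antibody 12 h at 10 degrees C.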
TRPML1 agonist: human mucolipin-1 channel agonism. activation, % (concentration not given with the values). Q9GZU1. TRPML1-expressing cells, Ca2+ dye fluorescence, FDSS; host cell line not named in the record; reference of the full effect not given here. hit rate 0.12% among 410,000; in the data active = activation above about 50%; inconclusive = about 30% to 50%; inactive = below about 30%; further: 0% is about no effect; the text of the record puts the active cut at 80%
Target sequence (Q9GZU1 whole entry, looked up): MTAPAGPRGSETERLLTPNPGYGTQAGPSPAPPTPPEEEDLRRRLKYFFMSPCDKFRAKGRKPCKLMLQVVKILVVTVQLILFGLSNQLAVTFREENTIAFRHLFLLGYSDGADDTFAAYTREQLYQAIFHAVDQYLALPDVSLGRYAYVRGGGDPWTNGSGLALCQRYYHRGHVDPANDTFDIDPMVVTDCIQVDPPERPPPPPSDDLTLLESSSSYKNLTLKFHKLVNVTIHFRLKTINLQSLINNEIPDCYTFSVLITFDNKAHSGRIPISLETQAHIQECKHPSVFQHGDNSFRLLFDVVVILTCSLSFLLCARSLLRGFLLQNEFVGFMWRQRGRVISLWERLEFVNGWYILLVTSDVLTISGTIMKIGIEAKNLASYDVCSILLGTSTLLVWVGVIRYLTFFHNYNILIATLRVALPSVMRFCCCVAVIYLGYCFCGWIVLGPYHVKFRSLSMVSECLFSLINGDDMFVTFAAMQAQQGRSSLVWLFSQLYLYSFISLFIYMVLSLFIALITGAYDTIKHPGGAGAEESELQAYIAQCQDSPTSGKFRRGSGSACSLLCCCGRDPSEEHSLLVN
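Tet-induced TRPML1-DL cells, 1,500 per well, cultured overnight, were loaded with a no-wash Ca2+ dye for 45–90 min. Calcium fluorescence was recorded on the FDSS for 110 s after compound addition, before the EC80 agonist (4 uM 54-4) was added.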
TRPML1 blocker: inhibitors of human TRPML1 channel; Q9GZU1; TRPML1-inducible cells, Ca2+ dye fluorescence, FDSS; stronger effect = lower value; inhibition of EC80 agonist-evoked calcium signal; activity change, negative = inhibition, % (concentration not given with the values); hit rate 0.02% among 390,000; AID 624415; in the data active means activity change below about -50%; inconclusive means about -30% to -50%; inactive means above about -30%;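 further: stimulus is agonist 54-4 at its EC80 concentration; on the % scale 0 is the no-effect control and ±100 the full control effect; compound concentration not given in the record; the text of the record puts the active cut at -80%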
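TRPML1-DL cells, Tet-induced overnight (~16 h, 37 °C) at 1,500 cells/well, were loaded with Ca8 no-wash dye plus quencher for 45-90 min at room temperature. Compounds were pinned during FDSS kinetic reading; agonist 54-4 at EC80 (4 uM final) then added.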
D2 ag: human D2 receptor agonism in beta-arrestin assay; DiscoveRx PathHunter D2 beta-arrestin, luminescence, 90 min; 100% = 57 uM dopamine signal; activation, % (no concentration beside the values); hit rate 0.084% among 360,000; AID 624465; in the data active = activation above about 40%; inconclusive = about 15% to 40%; inactive = below about 15%; further: compound concentration not given in the record; the text of the record calls up to 30% inactive
Target sequence (P14416 whole entry, looked up): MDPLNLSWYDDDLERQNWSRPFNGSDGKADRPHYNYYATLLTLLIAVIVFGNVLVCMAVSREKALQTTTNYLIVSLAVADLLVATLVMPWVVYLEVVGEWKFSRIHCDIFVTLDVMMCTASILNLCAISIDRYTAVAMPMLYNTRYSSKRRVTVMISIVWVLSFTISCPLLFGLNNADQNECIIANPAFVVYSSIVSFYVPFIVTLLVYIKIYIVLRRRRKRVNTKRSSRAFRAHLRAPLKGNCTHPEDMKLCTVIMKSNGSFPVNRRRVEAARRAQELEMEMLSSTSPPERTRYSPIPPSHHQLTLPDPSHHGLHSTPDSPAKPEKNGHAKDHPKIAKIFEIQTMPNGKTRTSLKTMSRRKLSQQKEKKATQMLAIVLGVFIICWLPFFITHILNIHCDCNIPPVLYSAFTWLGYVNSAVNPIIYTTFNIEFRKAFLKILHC
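Agonist mode: compounds alone added to overnight-plated D2 PathHunter cells for 90 min at 37 C, with 57 uM final dopamine (EC100) defining full response. Beta-arrestin recruitment detected by chemiluminescent reagent, read after 1 h at ambient temperature.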
Active calls of the source: *; ? = inconclusive; · = not tested or not shown; & = joins results of further samples; [ ] = another dose, or the depositor's remark. This is a random part of the collection; 1% or so of the library scored in one or more.

Results follow in this order: Six1-Eya2 blk | CtBP-E1A blk | PINK1 expr mod | TRPML1 agonist | TRPML1 blocker | D2 ag
CC1(C)CC(=O)C(C(C2=C(O)CC(C)(C)CC2=O)c2ccc(O)c([N+](=O)[O-])c2)=C(O)C1
  -7 | -3 | -0.1% | 2.9 | 12 | 0.6
COc1ccccc1N1CCN(c2ccc([N+](=O)[O-])nc2)CC1
  0 | -5 | 1.8% | -0.6 | -5 | -0.3
CCN(CC)c1ccc(C=Nc2ccccc2C)c(O)c1
  1 | 8 | 1.1% | 1.8 | 2 | 0.5
CCOc1ccc(NC(=O)C(C)Sc2nnc3cc(C)c4ccccc4n23)cc1 (centres undefined)
  · | · | 0.9% | 0.1 | 0 | ·
C=C(C)CNC(=S)Nc1sc2c(c1C(=O)OCC)CC(C)(C)OC2
  0 | 4 | -1.2% | 1.6 | -1 | -1.1
CCc1cccc(C)c1NC(=O)Cn1nnc(-c2nc(-c3ccccc3F)no2)c1N
  · | · | -0.4% | -0.5 | 6 | ·
N#Cc1cnn(-c2ncnc3sc(-c4ccccc4)cc23)c1N
  0 | -19 | 11%[38.3 µM] | -0.1 | -7 | 0.3
C=CCn1c2ccccc2c2nnc(SCC(=O)Nc3cc(C)on3)nc21
  -10 | -4 | ? | -0.1 | 4 | -4.7
CS(=O)(=O)c1ccccc1-c1nnc(NC(=O)c2ccco2)o1
  -15 | 2 | 0.7% | 0.2 | -5 | -2.7
N#C/C(=C\c1ccc(-c2ccccc2[N+](=O)[O-])o1)C(=O)N1CCOCC1
  -17 | -12 | -0.5% | -0.1 | -6 | ?
COc1cc(C2C3=C(CC(C)(C)CC3=O)Nc3c2c(=O)[nH]c(=O)n3Cc2ccccc2)ccc1O (centres undefined)
  2 | 2 | 1.8% | 2.3 | -12 | 2.2
CCOC(=O)N1CCN(C(=S)NC(=O)c2cccc(OC)c2)CC1
  17 | -3 | 0.0% | 0.7 | 0 | 5.6
Cc1ccc(-n2nc(C)c(/C=N/NC(=O)c3cccs3)c2Cl)cc1
  4 | 3 | 0.7% | 4.2 | 23 | 2.6
COc1cc(OC)c(OC)cc1/C=C1\CC(C)C/C(=C\c2cc(OC)c(OC)cc2OC)C1=O (centres undefined)
  ? | -27 | -3.4% | 4.1 | 9 | 0.8
Cc1cccc(N=NC(=S)NNc2cccc(C)c2)c1
  ? | ? | -1.3% | 0.4 | 14 | -1.5
Cc1ccn2c(C(=O)N/N=C/c3ccc(Cl)cc3)c(C)nc2c1
  0 | 2 | 9.8% | -0.6 | -5 | -14
COc1ccc(NC(=O)CCCc2nnc3n(CCC(C)C)c(=O)c4sccc4n23)cc1Cl
  · | · | 4.7% | 0.2 | 6 | ·
CC(C)NC(=O)C(=O)NNC(=O)C12CC3CC(CC(C3)C1)C2
  0 | 6 | -1.1% | -0.6 | 8 | -0.3
COc1ccccc1C(CNC(=O)c1cccc(S(=O)(=O)N2c3ccccc3CC2C)c1)N(C)C (centres undefined)
  23 | 0 | 0.4% | 0.4 | 2 | 0.9
C/C(=N\NC(=O)c1ccc(CN2CCc3ccccc3C2)cc1)c1ccccc1O
  -26 | -22 | -0.8% | 1.0 | 6 | 1.4
COC(=O)[C@]1(C)N[C@H](c2ccc(-c3ccc(Cl)c(Cl)c3)c(OC)c2)[C@@H]2C(=O)N(C)C(=O)[C@@H]21
  -19 | -18 | 0.9% | 2.5 | 23 | 4.3
CCOC(=O)c1c(-c2ccccc2)csc1NC(=O)c1cccc(N2C(=O)CCC2=O)c1
  2 | 7 | ? | -0.4 | 12 | -1.0
O=C(N/N=C/c1ccnc2ccccc12)c1ccccc1O
  ? | -6 | 2.4% | -1.1 | -8 | -5.5
COc1ccccc1-c1c(NC(=O)C(C)C)n(C)c2ccccc2c1=O
  7 | -1 | 1.6% | 0.4 | 1 | -12
COC(=O)c1cc(NC(=O)c2ccc3c(c2)NC(=O)c2ccccc2S3)cc(C(=O)OC)c1
  · | · | 0.2% | 0.6 | -22 | ·
Cc1ccc(C2=NN(CC(=O)NCc3ccccn3)C(=O)CC2)cc1
  2 | -2 | -0.6% | -0.5 | 10 | 0.6
O=C1Nc2cc(C(=O)N3CCN(c4ccccn4)CC3)ccc2S/C1=C\c1ccccc1
  0 | -2 | -0.4% | 1.4 | -2 | 5.0
Nn1c(SCc2ccc([N+](=O)[O-])cc2)nc2ccccc2c1=O
  3 | · | 2.1% | 2.9 | 27 | -3.4
Nc1ccccc1C(=O)N=Nc1[nH]c(N)c2ccccc12
  -76* | -87* | 0.0% | -0.7 | 2 | -5.5
Cc1cccc(NC(=O)CN2C(=O)S/C(=C\c3ccc(O)c([N+](=O)[O-])c3)C2=O)c1
  -5 | 0 | 2.5% | 0.0 | -12 | -5.8

Next part.
| Structure | Six1-Eya2 blk | CtBP-E1A blk | PINK1 expr mod | TRPML1 agonist | TRPML1 blocker | D2 ag |
| --- | --- | --- | --- | --- | --- | --- |
| O=C1c2ccccc2S(=O)(=O)c2cc(N3CCN(c4ccccn4)CC3)ccc21 | 8 | 8 | 1.2% | -0.4 | -6 | -1.5 |
| Nc1cc(N)cc(Cc2ccccc2)c1 | -24 | -22 | 1.6% | -0.3 | · | 3.9 |
| O=C(CC(c1cccs1)N1Cc2ccccc2C1=O)Nc1ccc(F)c(Cl)c1 (centres undefined) | · | · | -5.2% | 6.6 | 7 | · |
| COc1cc(N/N=C/c2ccc(N(C)C)cc2)ncn1 | -19 | · | 0.8% | 2.5 | -7 | -0.4 |
| COC(=O)NNC(=O)COc1ccc(Br)c(C)c1 | 3 | 3 | ? | 0.3 | 15 | -3.6 |
| Cc1ccc(-c2cc(C(=O)Nc3ccc(SC(F)F)cc3)no2)cc1F | · | · | 1.0% | 0.2 | -14 | · |
| O=C(NC(=S)NCCc1ccccc1)c1ccccc1 | -8 | -3 | -0.7%[38.3 µM] | 2.4 | 0 | -2.9 |
| O=C1C=C(c2ccc(CO)cc2)C[C@@H](c2ccc3c(c2)OCO3)C1 | -5 | 3 | 0.8% | -0.5 | -14 | 0.7 |
| CC1=C(C(=O)OCc2ccc3c(c2)OCO3)C(c2ccc(F)cc2)NC(=O)N1 (centres undefined) | -7 | -12 | -0.3%[38.3 µM] | 0.0 | -4 | 11 |
| COc1ccc(C(=O)N2CCCC(c3nc(-c4ccc(OC)c(OC)c4)no3)C2)c(OC)c1 (centres undefined) | 7 | 4 | 1.5% | -0.4 | 25 | 1.2 |
| O=C(CCNS(=O)(=O)c1ccc2c(c1)CCN2C(=O)C1CC1)Nc1ccc(F)cc1F | · | · | -2.3% | 0.8 | -16 | · |
| COc1ccc(/C=N/Nc2nc(-c3cccnc3)nc3ccccc23)cc1OC | 8 | 0 | 6.0% | -0.3 | 2 | -2.0 |
| COc1ccc(-c2csc(C(NC(C)=O)c3cccc(OC)c3)n2)cc1 (centres undefined) | -5 | 2 | 5.4% | 0.2 | · | -4.3 |
| COC(=O)c1ccc(NC(=S)Nc2ccccn2)cc1 | 7 | -4 | -2.3% | 1.2 | -10 | 0.8 |
| COc1cccc(C(=O)COc2ccccc2-c2ccccc2)c1 | 49 | -1 | 3.3% | 0.7 | 18 | -4.8 |
| CCCCN(CC)C(=O)CSc1nc2c(sc3ccccc32)c(=O)n1CCc1ccccc1 | · | · | 1.9% | -0.7 | 2 | · |
| O=C(NNC(=O)C(c1ccccc1)c1ccccc1)c1cccs1 | 5 | 2 | -1.4% | -0.1 | -5 | -3.0 |
| Fc1ccc(Oc2nc(-c3ccccn3)nc3ccccc23)cc1 | -13 | -15 | -0.1% | 1.6 | 7 | -5.7 |
| O=C1NC[C@@H](c2ccccc2)OC(=O)[C@H](Cc2ccc(F)cc2)CC/C=C/C[C@H]1CC(=O)N(CCO)Cc1ccccc1 | -8 | -7 | -0.5% | 4.1 | -17 | 11 |
| COc1cc(-c2c(NC(=O)c3ccco3)oc3ccccc3c2=O)cc(OC)c1OC | 5 | 0 | -0.8% | -0.3 | -13 | -0.6 |
| Cc1ccc(OCC(O)Cn2c(N3CCCCC3)nc3c2c(=O)[nH]c(=O)n3C)cc1C (centres undefined) | 1 | 1 | 1.6% | 0.7 | -3 | -4.3 |
| COc1cccc(NC(=O)Nc2nnc(Cc3ccc(OC)c(OC)c3)s2)c1 | 6 | -1 | 13% | 0.4 | 29 | -3.5 |
| CCN1C(=NCCc2ccc(Br)cc2)N[C@@H](c2ccccc2)[C@H](C(=O)OC)[C@H]1C | 2 | 0 | 1.6% | -0.7 | 9 | -2.1 |
| CC1CCN(S(=O)(=O)c2ccc3c(c2)N(CC(=O)NCCCN2CC(C)CC(C)C2)C(=O)CS3)CC1 (centres undefined) | 2 | 1 | -1.2% | 0.5 | -6 | -5.2 |
| CCC(=O)Nc1ccc(Oc2ccc(NC(=O)CC)c(NC(=O)CC)c2)cc1 | 7 | 8 | -0.5% | 0.1 | -18 | -6.0 |
| CC(CN1CCN(C)CC1)OC(=O)c1ccc(Cl)cc1 (centres undefined) | 5 | -1 | -1.4% | 1.3 | -4 | -5.7 |
| COC(=O)/C=C/c1ccc2c(c1)OCO2 | 14 | -29 | -2.1% | 0.8 | 3 | -1.1 |
| O=C(CCCn1c(=S)[nH]c2ccsc2c1=O)NC1CCCCC1 | 0 | 0 | 1.7% | 0.5 | -8 | 2.7 |
| Cc1ccc2nc(CCCc3nc4ccc(C)cc4[nH]3)[nH]c2c1 | -15 | -23 | 1.9% | 1.0 | 10 | -2.7 |
| COC(=O)[C@]12CCCCC=C1N(CCC1=CCCCC1)C(=O)[C@H](CC(=O)N1CCOCC1)C2 | -7 | 0 | -0.9% | -0.6 | · | · |
| COc1cc(N2CCOCC2)ncn1 | 2 | 6 | 0.9% | -0.3 | 10 | -1.0 |
| CC(=O)c1c(O)cc(O)cc1O | 4 | 2 | 0.0%&0.7% | · | · | -7.2 |

Three structures out of the list, sorted by molecular weight, smallest number first.
| Structure | Six1-Eya2 blk | CtBP-E1A blk | PINK1 expr mod | TRPML1 agonist | TRPML1 blocker | D2 ag |
| --- | --- | --- | --- | --- | --- | --- |
| COc1cc(N/N=C/c2ccc(N(C)C)cc2)ncn1 | -19 | · | 0.8% | 2.5 | -7 | -0.4 |
| COc1cccc(C(=O)COc2ccccc2-c2ccccc2)c1 | 49 | -1 | 3.3% | 0.7 | 18 | -4.8 |
| CCC(=O)Nc1ccc(Oc2ccc(NC(=O)CC)c(NC(=O)CC)c2)cc1 | 7 | 8 | -0.5% | 0.1 | -18 | -6.0 |
